NPYLR7 agonist: activates Aedes aegypti NPYLR7 receptor; HEK293T NPYLR7/Galpha15, GCaMP6s calcium fluorescence; activation, % at 10 µM; actives 0.15% (n = 270,000); in the data active = activation above about 40%;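 also: 0% = vehicle and 100% = reference agonist at the receptor; some compounds past the cut are filed as inactive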
NPYLR7 agonist max-min: recorded beside NPYLR7 agonist, whose call it bears; activation, %; measured here: Max-Min RFU normalised activation; some inactives read as strong as hits;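 span of the calcium signal over five minutes; 0% = vehicle and 100% = native peptide agonist; compound fluorescence can raise it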
* marks the source's active call; other numbers are inactive results; & = joins results of further samples. Some of the compounds tested; rates above refer to the full screens.

SMILES | NPYLR7 agonist | NPYLR7 agonist max-min
Cc1ccnc(NCCNC(=O)CN2CCOc3ccccc3C2)c1 | -8.7 | -12.1
CCN1CCCC1CN(CC1CCN(CCOC)CC1)C(=O)c1n[nH]c2c1CCC2 (centres undefined) | -0.7 | -9.3
CC1C(=O)NCCN1Cc1ccc(Br)cc1F (centres undefined) | 4.9 | 3.6
CC(C)(C)NC(=O)[C@@H]1C[C@@H]2CCCC[C@@H]2CN1C[C@@H](O)[C@H](Cc1ccccc1)NC(=O)[C@H](CC(N)=O)NC(=O)c1ccc2ccccc2n1 | -5.7&-2.8 | -8.2&-8.3
CCCc1cnc2c(c1SCc1ccc(C(=O)OC)o1)c(=O)n(C)c(=O)n2C | 3.1 | 2.2
CN(C)c1ccc(C=NS(=O)(=O)NC2=NCCCCC2)cc1 | 8.1 | 5.9
CCC(C)OC1OC(CO)C(O)C(O)C1NC(C)=O (centres undefined) | 1.6 | 8.4
COCc1ccccc1NC(=O)NCCc1cccc(C)c1 | 4.0 | 2.1
CCOC1CCN(C(=O)c2cc(C)ccc2N(C)C(C)C)CC1 | 9.1 | 6.1
Cc1cc(S(=O)(=O)NCC(=O)NC(C)c2cnn(C)c2)ccc1F (centres undefined) | 30.2 | 21.2
COC(=O)c1cccnc1NCC1CNCCOC1 (centres undefined) | 0.5 | -7.4
CCCCN(CCC(=O)NCCc1ccccc1)c1nc(Cc2ccc(C)cc2)ns1 | -7.5 | -8.7
COc1ccc(N2CC(C(=O)NCc3cc(-c4ccccc4F)on3)CC2=O)cc1 (centres undefined) | 0.1 | -0.7
Cc1nn2c(N3CCOCC3)cc(C(C)(C)C)nc2c1-c1ccccc1 | -2.3 | -5.7
CCCCCCNC(=O)c1cc2n(n1)CCN(CC1CC1)C2=O | 2.8 | 12.1
Cc1ccc(C)c(-c2cc(CN(C)C(=O)C3CC3)no2)c1 | 1.9 | 1.4
COCCNC(=O)C1CCCN(C2CCN(C(=O)c3cccn3C)CC2)C1 (centres undefined) | -8.8 | -12.5
CSCc1cccc(C(=O)N2CCC(C(N)=O)CC2)c1 | 7.6 | 4.8
O=C(c1ccc(F)c(F)c1)N1CCCC(N2CCN(c3cccc(Cl)c3)CC2)C1 (centres undefined) | 15.8 | 7.9
CCn1c(=O)c2ccccc2n2c(CNc3cccc(S(C)(=O)=O)c3)nnc12 | 10.4 | 7.8
Cc1cc(Nc2ccc3c(n2)C(=O)N(CC(=O)NC2CC2)C3)n(C)n1 | 5.9 | 0.6
Clc1ccc2nc(-c3ccn[nH]3)ccc2c1 | 11.9 | -3.5
O=C(O)CCC1CN(C(=O)c2ccccc2)c2ccccc21 (centres undefined) | -7.2 | -10.2
COc1ccc(-c2cc(C(=O)NC3CCCCC3)n3nc(C(C)(C)C)cc3n2)cc1 | 8.4 | 11.8
CCc1c(C)nn(-c2ccc(C(=O)NCc3cccnc3)cc2)c1C | -1.8 | -6.2

4 entries from above, field by field:
mol: COCCNC(=O)C1CCCN(C2CCN(C(=O)c3cccn3C)CC2)C1 (centres undefined)
  NPYLR7 agonist: -8.8
  NPYLR7 agonist max-min: -12.5
mol: CSCc1cccc(C(=O)N2CCC(C(N)=O)CC2)c1
  NPYLR7 agonist: 7.6
  NPYLR7 agonist max-min: 4.8
mol: O=C(c1ccc(F)c(F)c1)N1CCCC(N2CCN(c3cccc(Cl)c3)CC2)C1 (centres undefined)
  NPYLR7 agonist: 15.8
  NPYLR7 agonist max-min: 7.9
mol: CCn1c(=O)c2ccccc2n2c(CNc3cccc(S(C)(=O)=O)c3)nnc12
  NPYLR7 agonist: 10.4
  NPYLR7 agonist max-min: 7.8

(further entries)
SMILES | NPYLR7 agonist | NPYLR7 agonist max-min
Cc1ccccc1-n1nc(C(C)(C)C)cc1NC(=O)CN(Cc1ccccc1)C(=O)C(Cl)c1ccccc1 (centres undefined) | -1.8 | 9.4
CC(C)N(Cc1ccc(C#N)cc1)C(=O)Nc1ccc(N(C)C)cc1 | 8.8 | 5.7
O=C(CCC1CCCC1)Nc1nnc(SCC(=O)c2cccc([N+](=O)[O-])c2)s1 | 4.7 | 8.1
O=C1CCCCCN1CCCNc1nc(C(F)(F)F)nc2ccccc12 | 4.5 | 3.4
Cc1cnccc1N1CCCN(C(=O)c2cnc3ccccc3c2)CC1 | 1.0 | -0.4
CCc1nnc(-c2cc3ccccc3n2CC(=O)N(C(C)C)C(C)C)o1 | -2.6 | -2.8
Cc1ccc2nc(C)c(NC(=O)c3ccccc3C(F)(F)F)c(=O)n2c1 | 3.6 | 0.5
CN1C(=S)N(C(c2ccccc2)c2ccccc2)C(=O)/C1=C\c1cccc(OCCO)c1 | 26.0 | 24.7
Cc1nc(C(C)C)sc1C(=O)Nc1nncs1 | -4.6 | -4.2
O=C(Nc1ccc2ncsc2c1)c1nc2ccccc2s1 | 6.8 | 12.3
CCCC1(C2CCN(C(=O)c3cccs3)CC2)NC(=O)N(CCc2ccccn2)C1=O (centres undefined) | 37.7 | 19.4
CN(C)CCNCC1(c2ccnc(-c3cccc(NS(C)(=O)=O)c3)c2)CC1 | 8.2 | 23.2
NC(=O)c1c(NC(=O)c2cc(-c3cccs3)on2)sc2c1CCCC2 | 0.9 | 0.5
CCc1c(C)nc(-n2nc(C)cc2NC(=O)/C=C/c2ccc(OC)c(OC)c2)[nH]c1=O | 9.0 | 3.8
Cc1ccc(C(CCO)n2cc(-c3ccnc4ccccc34)nn2)cc1 (centres undefined) | 6.3 | 3.3
CCOC(=O)c1cnc2nc(SC)[nH]n2c1=O | -9.5 | -13.7
O=C(NCCNS(=O)(=O)Cc1ccccc1)C1CCC1 | -4.3 | -4.8
O=S(=O)(NCCc1ccc(OC(F)F)cc1)c1cccs1 | 0.8 | 2.5
Cc1ccc(C)c(-n2c(C)cn3c4c(=O)n(CC(=O)C(C)(C)C)c(=O)n(C)c4nc23)c1 | 4.2 | 5.0
COc1cccc(Cc2nc3c(c(N4CCOCC4)n2)CN(C(=O)COc2ccccc2)CC3)c1 | -0.6 | 6.8
CCNC(=O)O[C@H]1C(=O)N(C)C2(CCN(C(=O)c3ccco3)CC2)[C@@H]1C(=O)OCC | 28.9 | 32.6
O=c1oc2ccccc2n1CCN1CCN(c2nccc3ccccc23)CC1 | 26.9 | 15.1
COc1ccc(C(=O)Nc2ccc(N3CCC(NC(C)c4cccs4)CC3)cc2)cc1 (centres undefined) | 20.9 | 7.5
CCCCc1ccc(C(=O)N(CCCOCC)CC(=O)N(Cc2cccn2Cc2ccc(F)cc2)C2CCCCC2)cc1 | 0.9 | 5.6
Cc1nc(-c2ccc(Cl)cc2)nc(N2CCN(S(=O)(=O)c3cccc4cccnc34)CC2)c1Cc1ccccc1 | -5.3 | -3.6

One compound at a time (already shown):
`CN1C(=S)N(C(c2ccccc2)c2ccccc2)C(=O)/C1=C\c1cccc(OCCO)c1` as listed: NPYLR7 agonist = 26.0; NPYLR7 agonist max-min = 24.7
`Cc1ccnc(NCCNC(=O)CN2CCOc3ccccc3C2)c1` as listed: NPYLR7 agonist = -8.7; NPYLR7 agonist max-min = -12.1

Next records.
SMILES | NPYLR7 agonist | NPYLR7 agonist max-min
CC1CN(c2cc(Cl)nc(SCC(=O)NCCCN3CCOCC3)n2)CCN1C(=O)NC(C)(C)C (centres undefined) | 7.0 | 12.0
CC1=C/C(=N/N=C2\NC(=O)C(CC(=O)Nc3ccc(Cl)cc3)S2)CC(C)(C)C1 (centres undefined) | 4.6 | 2.4
CCC(CC)NC(=O)c1[nH]c(C)c(C(=O)OC)c1C | -10.7 | -11.8
CC(C)(C)c1ccc(C2SCCN2C(=O)c2ccc(Br)cc2)cc1 (centres undefined) | 1.7 | 2.6
CC(C)(C)c1ccc(C(=O)N=C2N=C3C=CC(Br)=CN3Cc3ccccc32)cc1 | -7.4 | -13.4
CC(=O)c1cc(CC(=O)N2Cc3cnn(CCO)c3C2)cs1 | 9.0 | 6.4
Cc1c(CCC#N)c(Cl)n2c(nc3ccccc32)c1C#N | 3.4 | 1.0
Nc1cc2ccccc2oc1=O | 0.4 | 8.0
C=CCn1c(SCc2ccc(C(=O)NCc3cccc(C(F)(F)F)c3)cc2)nnc1-c1ccc([N+](=O)[O-])cc1 | -0.6 | 4.3
COc1ccc(CC(=O)NCC2Cc3cc(OC)ccc3O2)cc1 (centres undefined) | 14.9 | 24.9
CCN1CCc2c(sc3nc(Cc4ccccc4)nc(N4CCN(C(=O)C5CCCCC5)CC4)c23)C1 | -3.1 | -0.5
CCN(CC1CCCO1)C(=O)c1c(C)nc(C(C)(C)C)[nH]c1=O (centres undefined) | 4.9 | 3.7
O=C(NCCC(c1ccccc1)c1ccccc1)c1cc(-c2ccccc2)nn1-c1ccc([N+](=O)[O-])cc1 | 1.4 | 11.7
CCN(Cc1nccn1C)Cc1c(C(=O)N2CCOCC2)nc2ccccn12 | 1.2 | -0.7
CCS(=O)(=O)Oc1ccc(Cl)cc1CN(CCOC)C(=O)c1ccccc1F | -1.0 | 10.9
Cc1cc(F)ccc1Oc1cc(N2CCN(C(=O)c3cccc([N+](=O)[O-])c3)CC2)ncn1 | 6.3 | 9.3
N#Cc1c(N)c(C(=O)c2ccc(Br)cc2)n2ccccc12 | 1.6 | 3.4
CCCCCn1c(=O)c2c(nc3n2CC(O)CN3c2ccc(C)cc2)n(C)c1=O (centres undefined) | 3.3 | 11.7
O=C(CCN1CCCCO1)NC[C@H]1C[C@H]2C=C[C@H]1C21CC1 | 9.5 | 0.7
CC(C)(C)c1ccc(C(=O)N2CCC2(C)C(=O)Nc2cnc3ccccc3c2)cc1 (centres undefined) | 9.5 | 8.2
COc1ccccc1NC(=O)N(C)CCN1C(=O)CSC1c1ccc(C(C)(C)C)cc1 (centres undefined) | 16.3 | 20.9
COc1ccccc1/C=C/C=C1\N=C(c2ccc(Cl)cc2)OC1=O | -0.7 | -4.7
Cc1ccc(C)c(CC(=O)N2CCCC(O)(CO)C2)c1 (centres undefined) | 5.8 | 3.3
O=C(CN1CCC2(CC1)OCCCO2)Nc1ccccc1Cl | -6.5 | -9.3
CC1(C)CC(=O)C2C(=Nc3ccccc3N3C(=O)c4ccccc4C23)C1 (centres undefined) | 14.0 | 11.1

Part of the list above, as tab-separated lines:
structure	NPYLR7 agonist	NPYLR7 agonist max-min
CCN1CCCC1CN(CC1CCN(CCOC)CC1)C(=O)c1n[nH]c2c1CCC2 (centres undefined)	-0.7	-9.3
CC1C(=O)NCCN1Cc1ccc(Br)cc1F (centres undefined)	4.9	3.6

The results go on.
SMILES | NPYLR7 agonist | NPYLR7 agonist max-min
O=C(CSc1nc2ncccn2n1)NCCc1ccc(F)cc1 | 38.3 | 32.3
O=C1/C(=C\c2ccc(-c3ccc(F)cc3)o2)SC(=S)N1c1cccc(Cl)c1 | 1.6 | 7.1
Cn1c(C(=O)NS(C)(=O)=O)cc2cc(C(F)(F)F)ccc21 | -32.5 | -31.1
COCC(=O)N1CCN(c2cc(S(=O)(=O)N3CCc4cc(OC)c(OC)cc4C3)ccc2OC)CC1 | 4.3 | -1.0
Cc1cc(C)n(C2CCN(C(=O)C3(C(N)=O)CC3)CC2)n1 | 18.0 | 5.0
c1ccc(Cn2ccnc2CNC2CCCOc3ccccc32)cc1 (centres undefined) | 2.3 | 1.5
COc1ccc(-c2nc(COC(=O)c3nnn(-c4ccc(C)cc4)c3C)c(C)o2)c(OC)c1 | 5.9 | 2.5
CCn1c(=O)c(C(=O)NC2CC2)nn(-c2ccccc2F)c1=O | 22.0 | 18.6
CCOC(=O)C1CCN(C(c2ccc(Cl)cc2)C2Sc3nc(CC)nn3C2=O)CC1 (centres undefined) | -1.2 | 8.3
COCCn1c(C)cc(O)c(C(c2ccncc2)N2CCN(c3ccccn3)CC2)c1=O (centres undefined) | 18.2 | 12.7
O=S(=O)(NCc1ccccc1N1CCN(S(=O)(=O)C2CC2)CC1)C1CC1 | -1.9 | -2.9
Cn1cc(/C=C2\NC(=S)NC2=O)c2ccccc21 | 1.0 | -0.6
CSc1ccc(Cn2c(C)c(C(=O)NCc3ccco3)sc2=O)cc1 | 4.1 | -3.0
COc1ccc2c(c1)C(COCc1ccc(S(C)(=O)=O)cc1)CC(C)(C)O2 (centres undefined) | 1.0 | 8.2
CCN(CC)S(=O)(=O)c1ccc(C(=O)Oc2coc(CSc3ncccn3)cc2=O)cc1 | -23.6 | -8.1
COc1ccccc1NC(=O)N1CCN(c2nc(-c3cccc(C(F)(F)F)c3)nc(C)c2Cc2ccccc2)CC1 | -4.0 | 5.5
c1coc(CCNc2nc3nonc3nc2N2CCSCC2)c1 | -0.1 | -3.2
Cc1ccc(C(C)C)cc1S(=O)(=O)N1CCN(c2ccc(-n3cccn3)nn2)CC1 | -2.1 | -9.3
CCCN1CCC(CC(=O)N2CCn3cccc3C2CC)CC1 (centres undefined) | 11.4 | -2.8
O=C(COc1cccc(C(F)(F)F)c1)NNC(=O)C12CC3CC(CC(C3)C1)C2 | 2.3 | 0.7
CCN1C(=O)/C(=C\c2ccc(-c3ccccc3C(=O)O)o2)N(CC)C1=S | -0.6 | -3.7
O=C(NCCn1nc(-c2ccncc2)ccc1=O)Nc1ccccc1F | 12.0 | 6.7
CN1CCN(c2c(F)cc3c(=O)c(C(=O)O)cn(CCF)c3c2F)CC1 | 18.1 | -3.3
CCCC12CN(C(=O)c3cccnc3Nc3ccc(OC)cc3)CC1C(=O)NC(=O)N2 (centres undefined) | 3.6 | 3.3
CC(Sc1nnc(SCc2ccc(C(C)C)cc2)s1)C(N)=O (centres undefined) | 10.4 | 2.2
Cc1nccn1CCCC(=O)N1CCC(Cc2cccc(C(=O)O)c2)C1 (centres undefined) | 3.9 | 11.1
CC1C(=O)N(c2cccc(F)c2)CCN1C(=O)c1ccco1 (centres undefined) | -0.1 | 3.1
CCOC(=O)N1CCN(Cc2ccc3c(c2)CN(C(=O)c2ccc4ncccc4c2)CCO3)CC1 | -1.4 | -5.5
Cc1ccc(NCCCNC(=O)C2CCN(C(C)C)CC2)nc1 | 5.7 | -6.2
